TRPML1 agonist – human mucolipin-1 channel agonism; Q9GZU1; TRPML1-expressing cells, Ca2+ dye fluorescence, FDSS; host cell line not named in the record; reference of the full effect not given here; activation, % (test concentration not listed); 410,000 compounds, 0.12% hits; AID 624414; in the data active = activation above about 50%; inconclusive = about 30% to 50%; inactive = below about 30%; further: 0% is about no effect; the text of the record puts the active cut at 80%
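Calcium fluorescence on an FDSS kinetic reader gave the read-out. Tet-induced TRPML1-DL cells were plated overnight, dye-loaded (Ca8 with quencher, 45-90 min, room temperature, dark), then read 110 s after compound addition, and again 110 s after 4uM final 54-4 (EC80).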
D2 ag – activates the human D2 dopamine receptor. DiscoveRx PathHunter D2 beta-arrestin, luminescence, 90 min; 100% = 57 uM dopamine signal. activation, % (no concentration beside the values). 360,000 compounds, 0.084% hits. AID 624465; in the data active = activation above about 40%; inconclusive = about 15% to 40%; inactive = below about 15%; further: compound concentration not given in the record; the text of the record calls up to 30% inactive
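DiscoveRx PathHunter D2 beta-arrestin cells (2,100/well) attached overnight, then compound-stimulated 90 min at 37 C in HBSS/10 mM HEPES/0.1% Tween-20 buffer; beta-galactosidase complementation read by luminescence after 1 h at ambient temperature. Dopamine 57 uM final (EC100) as control.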
TRPML1 blocker – inhibitors of human TRPML1 channel | Q9GZU1 | TRPML1-inducible cells, Ca2+ dye fluorescence, FDSS; active compounds read low; inhibition of EC80 agonist-evoked calcium signal | activity change, negative = inhibition, % (test concentration not listed) | 390,000 compounds, 0.02% hits | AID 624415; in the data active means activity change below about -50%; inconclusive means about -30% to -50%; inactive means above about -30%;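 further: stimulus is agonist 54-4 at its EC80 concentration; on the % scale 0 is the no-effect control and ±100 the full control effect; compound concentration not given in the record; the text of the record puts the active cut at -80%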
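Tet-induced TRPML1-DL cells loaded with Ca8 no-wash calcium dye were read kinetically on FDSS. Compound addition was followed by EC80 agonist 54-4 (4 uM final); inhibition was read over 110 s.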
PINK1 modulator – changes PINK1 expression; PINK1 immunofluorescence, high-content cytometry, 24 h; Potency, µM (highest dose often 76.6 µM), for inactives: top-dose activation (PINK1 increase), actives largely listed as activators; 410,000 compounds, 0.2% hits; AID 624263; active = well fitted activation curve with a large enough effect; inconclusive = small, poorly fitted or top-dose-only effect; inactive = flat fitted curve, though single readings scatter; cell line not stated here;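 further: potency means the concentration at half of the fitted maximal effect; % of control where 0% means no effect; nearly all actives have a fitted effect of over 65% in size; a mitochondrial uncoupler was the plate control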
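PINK1 protein level read as immunofluorescence by microplate cytometer in a fixed, stained stable cell line after 24 h exposure to five compound concentrations, with CCCP as control.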
Six1-Eya2 blk – Six1/Eya2 interaction inhibition; Q15475+O00167; AlphaScreen GST-Six1/His-Eya2 binding, biochemical; active compounds read low; control for the full effect not named in the record; activity change, % (test concentration not listed); 360,000 compounds, 0.56% hits; AID 651725; in the data active = activity change below about -65%; inconclusive = about -30% to -65%; inactive = above about -30%; further: on the % scale 0 is the no-effect control and ±100 the full control effect
Target sequence (O00167 whole entry, looked up): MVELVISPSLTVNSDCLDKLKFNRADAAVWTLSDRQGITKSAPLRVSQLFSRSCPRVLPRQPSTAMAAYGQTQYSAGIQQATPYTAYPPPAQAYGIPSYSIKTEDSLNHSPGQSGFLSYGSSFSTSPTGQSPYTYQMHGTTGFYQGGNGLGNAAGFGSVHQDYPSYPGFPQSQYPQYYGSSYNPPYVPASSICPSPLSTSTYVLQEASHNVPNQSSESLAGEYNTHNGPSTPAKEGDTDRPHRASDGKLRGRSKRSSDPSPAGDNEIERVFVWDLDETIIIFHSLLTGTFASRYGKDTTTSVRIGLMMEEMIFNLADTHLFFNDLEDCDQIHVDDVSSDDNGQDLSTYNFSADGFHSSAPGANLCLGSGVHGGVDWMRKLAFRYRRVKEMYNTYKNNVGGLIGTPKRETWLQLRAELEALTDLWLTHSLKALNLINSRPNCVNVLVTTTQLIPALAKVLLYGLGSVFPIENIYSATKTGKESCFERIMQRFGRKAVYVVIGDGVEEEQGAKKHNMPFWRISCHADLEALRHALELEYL
Target sequence (Q15475 whole entry, looked up): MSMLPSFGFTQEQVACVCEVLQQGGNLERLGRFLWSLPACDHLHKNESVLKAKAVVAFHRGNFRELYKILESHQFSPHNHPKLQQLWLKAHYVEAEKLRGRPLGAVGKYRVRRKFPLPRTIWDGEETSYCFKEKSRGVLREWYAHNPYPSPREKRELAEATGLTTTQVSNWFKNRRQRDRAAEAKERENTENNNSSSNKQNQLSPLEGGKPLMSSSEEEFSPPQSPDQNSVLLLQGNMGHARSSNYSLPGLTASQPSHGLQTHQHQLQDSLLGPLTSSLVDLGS
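Homogeneous AlphaScreen proximity assay pairing GST-Six1 with His-tagged Eya2 (added as 5X mix: 250 nM and 500 nM) in 50 mM Tris pH 8.0, 300 mM NaCl, 1 mM TCEP. Glutathione donor and nickel acceptor beads; 1 h, 37 °C, dark.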
CtBP-E1A inh – blocks the CtBP interaction with E1A; AlphaScreen GST-E1A/His-CtBP binding, 1536-well; active compounds read low; control for the full effect not named in the record; activity change, % (concentration not given with the values); 340,000 compounds, 0.49% hits; in the data active means activity change below about -65%; inconclusive means about -30% to -65%; inactive means above about -30%; further: on the % scale 0 is the no-effect control and ±100 the full control effect
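Homogeneous bead-based format: GST-tagged E1A captured on glutathione donor beads, His-tagged CtBP on nickel acceptor beads; compounds precede bead addition by 2 h at 37 °C.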
* marks the source's active call; other numbers are inactive results; ? = inconclusive; · = no result given; [ ] = dose if it differs, or a comment. The list is partial; count on the stated rates, not on these rows.

Results follow in this order: PINK1 modulator, CtBP-E1A inh, D2 ag, Six1-Eya2 blk, TRPML1 blocker, TRPML1 agonist
CCOC(=O)c1c(C)[nH]c(C)c1C(=O)C(Cc1ccccc1)N(C)C (stereo not drawn)
  -1.0%, ·, -2.9, -1, -16, 0.5
CCc1ccc(-n2c(O)c(/C=N/N3CCCCC3c3cccnc3)c(=O)[nH]c2=O)cc1 (stereo not drawn)
  -2.2%, ?, 1.1, -23, -5, 5.1
Cc1ccccc1-n1c(-c2ccoc2)nc2ccccc2c1=O
  0.3%, 14, -3.8, 0, 7, -0.8
Cc1ccc2c(c1)CNc1ccccc1O2
  2.0%, -2, 0.0, -9, 3, -1.5
CCCCCCN=Cc1c(O)n(C)c(=O)n(C)c1=O
  -1.0%, -2, 0.1, 0, 8, 1.0
Cc1ccnc(-n2c(C)nc3ccccc3c2=O)c1
  -0.5%, 4, -3.0, 2, -9, 1.2
CSc1ncc(Br)c(N2CC2)n1
  2.1%, -1, 4.4, -4, 8, -0.5
COc1ccc(/C=C2/C(=O)N(Cc3ccco3)C(=O)N(C(C)C)C2=O)cc1
  0.6%, ·, -6.7, 0, 33, 1.9
O=C(Cc1ccc(Cl)c(Cl)c1)NCC1(N2CCOCC2)CCCCC1
  -0.4%, -14, -2.6, 7, -13, 1.3
C[C@@H]1CN(C2CCC(C#N)(c3ccc(F)cc3)CC2)CC[C@]1(C(=O)O)c1ccccc1 (stereo partly drawn)
  2.6%, 2, -3.2, 2, 7, -0.6
CSc1nnc(C2CCNCC2)n1C
  -0.8%, 0, -0.6, 6, 3, 0.0
Fc1ccc(CNCCc2ccccc2)cc1
  -1.4%, -14, -1.9, 0, -8, 0.1
COc1ccccc1CCNCc1ccc(OC)c(OC)c1OC
  0.7%, -5, -2.5, 4, 8, 0.5
C=CCC1C(=O)NC(=S)NC1=O
  -0.6%, 4, -0.1, -2, 12, -0.1
CCC(=O)N1CC(=O)Nc2ccc(Br)cc2C1c1ccccc1 (stereo not drawn)
  -1.8%, -16, 6.3, -8, -3, -0.2
CCCCCc1nc2ccccc2c(=O)n1-c1ccc(Cl)cc1[N+](=O)[O-]
  6.7%[38.3 µM], 0, -2.0, -1, 13, 0.1
Cc1ccccc1NC1=NCCCS1
  3.2%, 6, -0.5, 2, 8, -0.6
CN1CCc2cccc(Cl)c2CC1
  0.6%, 21, -0.8, 22, -7, -0.6
CC(=O)O[C@]1(c2ccccc2)CCN(C)[C@H]2CCCC[C@@H]21
  -0.9%, 5, 1.5, -2, -8, 0.1
Cc1sc2nc(COC(=O)Cc3ccccc3)[nH]c(=O)c2c1C
  -2.2%, 1, 0.6, 6, -5, 0.7
c1ccc(CCNCc2cccs2)cc1
  0.1%, 9, -4.9, -1, 11, -0.1
CCN(CC)c1ccc(/C=C2/C(=O)NC(=O)N(CC3CCCO3)C2=O)cc1 (stereo not drawn)
  0.7%, 2, 0.7, 5, -4, 1.3
Cc1ccsc1C(=O)C1CCCN(Cc2ccc(-n3cccn3)cc2)C1 (stereo not drawn)
  3.0%, 23, 4.6, -5, ·, ·
CC/C(=N\NC(=S)Nc1ccccc1)c1c(O)[nH]c(=O)[nH]c1=O
  2.6%, 9, -0.7, 9, -5, 0.7
C[C@]12CC[C@@H]3c4ccc(O)c(O)c4CC[C@H]3[C@@H]1CC[C@@H]2O
  ?, -6, 5.5, -4, 23, -0.2
C[C@]12CC[C@@H](O)CC1=CC(=O)C1C2CC[C@]2(C)C(=O)[C@H](O)CC12 (stereo partly drawn)
  2.1%, 8, 2.6, -12, -9, 0.0
Cc1ccc(S(=O)(=O)N2CCN(C(=O)COC(=O)Cc3ccccc3)CC2)c(C)c1
  -4.2%, -2, -2.8, 3, 6, 0.5
COC(=O)C1=C(c2cccc(OC)c2OC)C[C@@H]2CC[C@H]1N2C(=O)N1CCOCC1
  1.7%, 12, -3.3, 8, -4, 0.5
CCCCCN1C(=O)c2ccccc2[C@@]2(C(=O)OCC)Cc3cc(OC)ccc3[C@@H]12
  -0.2%, 1, ·, -4, ·, -0.6
C=CCn1c(O)c(/C=N/N2CCCCC2c2cccnc2)c(=O)[nH]c1=S (stereo not drawn)
  0.3%, 2, -0.1, 3, -9, 0.2
CCCCC1(CCCC)C(=O)NC(=Nc2cccc(C)c2)NC1=O
  16µM*, -3, -3.1, -15, -6, 0.7
COc1cccc(-n2c(O)c(C=NCCN3CCOCC3)c(=O)[nH]c2=O)c1
  -0.1%, 3, -4.0, -1, -2, -1.2
CC(C)OS(C)(=O)=O
  0.6%, 4, 2.8, 2, -4, -0.3
CN=C(SCC(=O)c1cccc(Cl)c1)c1c(O)n(C)c(=O)n(C)c1=O
  9.1%, -20, 4.4, -8, 6, 1.0
C=C(C)CC1(CC)C(=O)NC(=S)NC1=O
  2.3%, 2, 0.7, 4, 7, -0.6
CC(=O)C1C2c3ccccc3OC1(C)N=c1s/c(=C/c3cn(C)nc3C)c(=O)n12 (stereo not drawn)
  1.7%, 0, -0.4, -2, -5, -0.4
c1cncc(CNC2=NCCCCC2)c1
  4.5%, -1, -4.2, 1, -12, 0.3
CCOC(=O)C1CCN(C=C2C(=O)N(C)C(=S)N(C)C2=O)CC1
  0.8%, 4, -7.0, -4, -2, 0.0
COc1ccc2c(c1)NP(=S)(c1ccccc1)N2C (stereo not drawn)
  8.2%, ?, 1.1, ?, 8, 1.9
C/C=C(\C)C(=O)N[C@@H](c1ccccc1)[C@@H](O)C(=O)O[C@H]1C[C@@]2(O)[C@@H](OC(=O)c3ccccc3)C3[C@](C)(C(=O)[C@H](OC(C)=O)C(=C1C)C2(C)C)[C@H](O)C[C@H]1OC[C@@]31OC(C)=O (stereo partly drawn)
  6.7%, -9, -4.9, -3, ·, ·
O=C(Nc1ccc(Cl)cc1C(=O)c1ccccc1)c1ccc(Br)o1
  1.2%, -1, -3.7, -10, 4, 1.4
O=C1NC2C(=CC(O)C(O)C2O)c2cc3c(cc21)OCO3 (stereo not drawn)
  -6.8%, 3, -1.1, -9, 16, 0.6
CC(NC(C)(C)C)C(=O)c1cccc(Cl)c1 (stereo not drawn)
  0.1%, -2, -11, -1, 0, -0.7
CCC(c1nnnn1-c1ccc(OC)cc1)N1CCC2(CC1)C(=O)NCN2c1ccccc1 (stereo not drawn)
  0.1%, 0, -8.1, -2, ·, -0.7
CC/C(=N\NC(=O)c1ccccc1)c1c(O)n(Cc2ccccc2)c(=O)[nH]c1=O
  0.9%, -3, -4.3, -10, -4, 0.1
COC(=O)C1=C(c2ccc(OC(F)(F)F)cc2)C[C@@H]2CC[C@H]1N2C(=O)N1CCC(C)CC1
  ?, 8, -5.3, 0, -5, 0.2
C=CC(C)C(C(=O)c1ccccc1)N(C)C (stereo not drawn)
  4.6%, ·, -5.8, -11, -14, 0.7
Cc1cc(C)cc(OCC(=O)Nc2ccc(Cl)cc2C(=O)c2ccccc2)c1
  -0.7%, ·, ·, ·, -14, 0.3
O=C(c1cccc(C(F)(F)F)c1)N1C[C@H]2C[C@@H](C1)c1cccc(=O)n1C2
  2.4%, 4, 0.0, 4, 4, -0.4
O=C(C(=O)N1CCOCC1)c1cn(Cc2ccccc2F)c2ccccc12
  0.0%, 1, -3.3, 4, -1, 0.8

Next section.
Results follow in this order: PINK1 modulator, CtBP-E1A inh, D2 ag, Six1-Eya2 blk, TRPML1 blocker, TRPML1 agonist
COc1ccccc1N1CCN(Cc2ccc(Cl)cc2Cl)CC1
  ·, 9, -0.1, -6, 9, 1.8
CC(C)(OOC1(c2ccccc2)NC(=O)c2ccccc21)c1ccccc1 (stereo not drawn)
  3.4%, -1, ·, -5, ·, -0.1
Cc1ccccc1CN1CCNCC1
  2.7%, 8, 0.6, -1, -5, -0.1
COc1ccc(C(=O)N/N=C/C23CC[C@@H](O)CC2(O)CC[C@@H]2[C@@H]3CCC3(C)C(C4=CC(=O)OC4)CCC23O)cc1 (stereo partly drawn)
  -1.2%, 0, -3.4, 5, -14, -0.2
Clc1ccccc1C1=NCc2nncn2-c2sc(Br)cc21
  1.6%, -3, -6.3, -8, 2, -1.1
Cc1[nH]n(-c2ccccc2)c(=O)c1C(c1ccc([N+](=O)[O-])cc1)c1c(C)[nH]n(-c2ccccc2)c1=O
  40µM*, -17, -6.8, -17, 9, 6.0
CC[C@H]1CN(C)C[C@@]2(C(=O)OC)Cc3c([nH]c4ccccc34)C(=O)C[C@@H]12
  -0.7%, 5, 13, 10, ·, ·
COc1ccc(O)c(CN2CCCC(C(=O)c3ccccc3SC)C2)c1 (stereo not drawn)
  0.5%, -26, -3.0, ?, 4, -0.4
Cc1ccccc1-n1c(C)nc2ccccc2c1=O
  0.3%, 3, -2.7, 8, -2, -0.4
Cc1ccc(N2C(=O)NC(=O)C(CCc3ccncc3)(Cc3cccc(Cl)c3Cl)C2=O)cc1 (stereo not drawn)
  -0.5%, -4, -3.8, -2, -8, 0.6
CCCCn1nnnc1C(CCSC)N1CCC(n2c(=O)[nH]c3ccccc32)CC1 (stereo not drawn)
  -1.4%, -10, 12, 0, ·, -0.4
CCOC(=O)[C@]12Cc3c(cc(OC)c(OC)c3OC)[C@H]1N(C(C)C)C(=O)c1ccccc12
  -0.9%, 3, ·, 1, ·, -1.0
CC(C)(C)[C@]1(O)C[C@@H]2OC(=O)C[C@@]23C(=O)O[C@@H]2OC(=O)[C@@H](O)C213 (stereo partly drawn)
  0.0%, 0, -3.2, 1, -8, 0.3
Cn1c(O)c(C=NCc2cccs2)c(=O)n(C)c1=O
  ·, -10, -0.7, -3, 4, -0.4
COC(=O)C1=C(c2c(C)noc2C)C[C@@H]2CC[C@H]1N2C(=O)NC1Cc2ccccc2C1
  0.8%, ·, -0.9, 6, -4, -0.2
CCC(=O)c1ccc(OC(=O)N(C)c2ccccc2)cc1
  0.3%, 7, -7.5, 5, -8, 0.2
COC(=O)C1=C(c2c(C)noc2C)C[C@@H]2CC[C@H]1N2C(=O)N1CCOCC1
  0.9%, 2, -1.4, -5, 14, -0.3

Exported field by field: part of the list above.
compound: CCOC(=O)[C@]12Cc3c(cc(OC)c(OC)c3OC)[C@H]1N(C(C)C)C(=O)c1ccccc12
  PINK1 modulator = -0.9%
  CtBP-E1A inh = 3
  D2 ag = ·
  Six1-Eya2 blk = 1
  TRPML1 blocker = ·
  TRPML1 agonist = -1.0
compound: CC(C)(C)[C@]1(O)C[C@@H]2OC(=O)C[C@@]23C(=O)O[C@@H]2OC(=O)[C@@H](O)C213 (stereo partly drawn)
  PINK1 modulator = 0.0%
  CtBP-E1A inh = 0
  D2 ag = -3.2
  Six1-Eya2 blk = 1
  TRPML1 blocker = -8
  TRPML1 agonist = 0.3
compound: Cn1c(O)c(C=NCc2cccs2)c(=O)n(C)c1=O
  PINK1 modulator = ·
  CtBP-E1A inh = -10
  D2 ag = -0.7
  Six1-Eya2 blk = -3
  TRPML1 blocker = 4
  TRPML1 agonist = -0.4
compound: COC(=O)C1=C(c2c(C)noc2C)C[C@@H]2CC[C@H]1N2C(=O)NC1Cc2ccccc2C1
  PINK1 modulator = 0.8%
  CtBP-E1A inh = ·
  D2 ag = -0.9
  Six1-Eya2 blk = 6
  TRPML1 blocker = -4
  TRPML1 agonist = -0.2
